From PubChem BioAssay
Vaccinia mCherry – qHTS for Stage-Specific Inhibitors of Vaccinia Orthopoxvirus: mCherry Reporter Primary qHTS | AID 720579, 2013 | Vaccinia virus mCherry reporter infection, fluorescence; about a quarter of the inactives have no number | 0.63% of 310,000 active | Potency, µM (titrated, usually from 36.5 µM), inactives show at the top dose activity change, negative = inhibition, most hits filed as inhibitors; active = well fitted inhibition curve with a large enough effect; inconclusive = small, poorly fitted or top-dose-only effect; inactive = no such curve, though single readings can be large or run the other way; tested in A549 cells; note: nearly all actives have a fitted effect of over 35% in size; inactives centre near -10
Vaccinia Venus – qHTS for Stage-Specific Inhibitors of Vaccinia Orthopoxvirus: Venus Reporter Primary qHTS. Vaccinia virus Venus reporter expression, fluorescence. Potency, µM (series often up to 36.5 µM), without a hit: top-dose activity change, negative = inhibition, actives largely listed as inhibitors. 0.46% of 330,000 active. AID 720580, 2013; active means well fitted inhibition curve with a large enough effect; inconclusive means small, poorly fitted or top-dose-only effect; inactive means no such curve, though single readings can be large or run the other way; tested in A549 cells; note: nearly all actives have a fitted effect of over 30% in size; inactives centre near -10
* = called active by the depositor; i = inactive; ? = inconclusive; . = no result given; & = joins results of further samples; [ ] = dose if it differs, or a comment. % is set by controls: 0 for no effect and ±100 for the full control effect; potency is the fitted concentration of half-maximal effect. Outcome played no part in choosing rows; about 0.87% have a hit in one of these screens.

Value order: Vaccinia mCherry | Vaccinia Venus
CC(NC(=O)Cc1ccc(NS(=O)(=O)c2cccc(C(F)(F)F)c2)cc1)c1ccccn1 (configuration not stated)
→ -18% | -19%
COc1ccc(C(=O)NCc2ncccc2C)cc1OC1CCN(C(C)=O)CC1
→ i | -9%
Cc1cc(=O)oc(C)c1C(=O)NCC1COc2ccccc2O1 (configuration not stated)
→ -12% | -5%
CC1=C(C(=O)OCCOC(C)C)C(c2cccnc2)C2=C(CCCC2=O)N1 (configuration not stated)
→ . | -8%
O=C(Nc1ccc(Cl)cc1)Nc1nc(-c2sccc2Br)cs1
→ i | ?
O=C(COc1ccc(F)cc1)NN1C(=O)CSC1=S
→ -14% | -2%
O=C(Nc1ccc(F)cc1)Nc1ccc2snnc2c1
→ -26% | -28%
CCN1C(=O)[C@H]2[C@@H](c3ccc(C)cc3)N3C(=O)N(c4cccc(C)c4)C(=O)[C@@]3(Cc3ccccc3)[C@H]2C1=O
→ i | -4%
O=C(N/N=C/c1ccccc1F)c1ccc(COc2ccccc2Cl)o1
→ -3% | -18%
CCn1nc(C)c(CN2CCc3c([nH]c4ccccc34)C2C(C)(C)C)c1C (configuration not stated)
→ ? | -7%
O=C(Nc1ccc(Cl)cc1Cl)c1ccc(Br)o1
→ -15% | -7%
COc1cc(S(=O)(=O)NCC2COCCO2)ccc1-n1cnnn1 (configuration not stated)
→ i | -5%
Cc1ccc(S(=O)(=O)N2CCOCC2)cc1NC(=O)COC(=O)c1ccc(OCc2c(C)noc2C)cc1
→ -18% | -11%
COc1ccc(N2CC(O)=C(c3nc(C)cs3)C2=N)cc1
→ -13% | -12%
O=C(O)c1ccc(Cn2c(SCc3ccc(F)cc3)nc3ccncc32)cc1
→ 4% | -7%
COc1ccc(NC(=S)NCc2ccccc2Cl)c(OC)c1
→ -19% | -18%
Cc1cccc(N2CCN(C(=O)c3cnn(-c4ccccc4)c3C3CCN(C(=O)OC(C)(C)C)CC3)CC2)c1C
→ -11% | -23%
CCOC(=O)C1=CCN(S(=O)(=O)c2ccccc2F)C1c1ccc(Cl)c(Cl)c1 (configuration not stated)
→ 31%[activator] | -6%
CC(C)N1CCOC(c2ccc(O)c(O)c2)C1 (configuration not stated)
→ 9% | -2%
O=S(=O)(c1ccccc1F)N1CCN(C(=S)NCc2ccccc2)CC1
→ 8% | -2%
COc1ccc(-c2c(C)c3ccc(O)c(CN4CCOCC4)c3oc2=O)cc1OC
→ -10% | -20%
N#C/C(=C\c1ccc[nH]1)C(=O)Nc1ccccc1Cl
→ -10% | -6%
CC1(C(=O)NS(=O)(=O)c2ccc(F)cc2F)CCN1C(=O)CC1CCCCC1 (configuration not stated)
→ 31%[activator] | -8%
CC1CCN(c2ccc(/C=C(\C#N)c3nn(-c4ccccc4)c(N)c3C#N)cc2[N+](=O)[O-])CC1
→ -17% | -12%
COc1ccc(-n2nc(C(=O)NCC(=O)NCCC3=CCCCC3)c3ccccc3c2=O)c(OC)c1
→ -11% | -4%
CC(C)(C)SCCNC(=O)CN(c1ccc(F)cc1)S(C)(=O)=O
→ -14% | -6%
O=c1c(-c2cc(-c3ccccc3)nc3c2COc2ccccc2-3)coc2ccc(Cl)cc12
→ -4% | -2%
O=S1(=O)N[C@H](Cc2ccccc2)COc2cccc(N3CCSCC3)c21
→ 4% | 1%
O=C(NCCc1csc(-c2ccc(F)cc2)n1)c1ccc(Br)o1
→ -15% | 3%
COCCNC(=S)N1CCN(C(=O)C(=O)Nc2ccc(C(=O)OC)cc2)CC1
→ -14% | -2%

Full records from above. Order of screens: Vaccinia mCherry, Vaccinia Venus
Entry for `COc1ccc(C(=O)NCc2ncccc2C)cc1OC1CCN(C(C)=O)CC1` → i, -9%
Entry for `O=C(O)c1ccc(Cn2c(SCc3ccc(F)cc3)nc3ccncc32)cc1` → 4%, -7%
Entry for `CCOC(=O)C1=CCN(S(=O)(=O)c2ccccc2F)C1c1ccc(Cl)c(Cl)c1` (configuration not stated) → 31%[activator], -6%
Entry for `CC1CCN(c2ccc(/C=C(\C#N)c3nn(-c4ccccc4)c(N)c3C#N)cc2[N+](=O)[O-])CC1` → -17%, -12%

(list continues)
Value order: Vaccinia mCherry | Vaccinia Venus
Cc1nnc2ccc(-c3cccc(NC(=O)c4ccco4)c3)nn12
→ ? | -24%
O=C(Cc1csc(NC(=O)Nc2cccc(Cl)c2)n1)NCc1ccccn1
→ ? | -24%
Cc1ccc(C(=O)NCCCNC(=O)Cc2ccccc2)cn1
→ -5% | -6%
COc1ccc2cc(C(=O)C3CCCN(C(=O)c4cnccn4)C3)ccc2c1 (configuration not stated)
→ -4% | -10%
Cc1c(C(=O)Nc2ccccc2Cl)oc2ccc(S(=O)(=O)N3CCCCCC3)cc12
→ ? | ?
Cc1sc2nc[nH]c(=O)c2c1-c1ccc(Cl)cc1
→ -6% | -20%
O=C(CCc1nc(-c2ccccc2F)no1)NCCN1CCN(Cc2ccccc2)CC1
→ . | -15%
O=C(/C=C/Nc1ccc(S(=O)(=O)Nc2ncccn2)cc1)c1ccc2ccccc2c1
→ i | -14%
Cc1ccccc1NC1c2ccccc2C(=O)N1Cc1ccco1 (configuration not stated)
→ -15% | -3%
COc1cc(C(=O)Oc2cccc(Nc3ncnc4ccccc34)c2)cc(OC)c1OC
→ -10% | -10%
CCN(C[C@H]1N[C@@](CC)(C(=O)OC)[C@H]2C(=O)N(C)C(=O)[C@@H]12)S(=O)(=O)c1ccc(C(F)(F)F)cc1
→ -13% | -6%
O=c1[nH]c(=S)[nH]c2c1C(C1CCCCC1)OC(C1CCCCC1)C2 (configuration not stated)
→ i | 2%
Cn1ncc(Br)c1C(=O)N1CCc2ccccc21
→ i | -6%
COc1ccc(-c2cc(-c3nnc(COC(=O)C4CC4)o3)c3ccccc3n2)cc1OC
→ -24% | -19%
Cc1ccc([C@H]2C[C@H](n3cc(COC(=O)c4ccccc4)nn3)[C@@H](O)CN2C(=O)C2CCCCC2)cc1
→ -14% | -10%
COCCCNC(=S)Nc1cc2oc3ccccc3c2cc1OC
→ ? | ?
CCOC(=O)CCc1c(C)c2ccc(O)cc2oc1=O
→ -12% | -14%
CSc1ccc(/C=C/C(=O)c2ccc(O)cc2)cc1
→ 11µM* | ?
O=C1NCCOC(=O)[C@H](Cc2ccc(F)cc2)CC/C=C/C[C@H]1CC(=O)N(CCO)Cc1ccccc1
→ i | ?
CC(C)[C@H](NC(=O)OC(C)(C)C)c1nnc(S(=O)(=O)Cc2c(F)cccc2Cl)o1
→ i | -14%
Cc1oc2c(c1C(=O)Nc1cccc(Br)c1)C1=NCCN1C=N2
→ ? | ?
COc1ccc(NC(=O)CN(C)S(=O)(=O)c2ccc3[nH]c4c(c3c2)CCCC4)cc1Cl
→ -27% | -17%
Cc1ccc(S(=O)(=O)NCc2ccccc2NS(=O)(=O)c2ccc(C)cc2)cc1
→ ? | -14%
COc1ccc(C(=O)Nc2ccccc2C(=O)NC(Cc2c[nH]c3ccccc23)C(=O)O)cc1 (configuration not stated)
→ 1% | 7%
CCN(CC)c1ccc(C=NCCNS(=O)(=O)c2ccc(C)cc2)cc1
→ -13% | -3%
O=C(/C=C/c1ccc(F)cc1)N1CCN(c2ncccn2)CC1
→ 1% | -2%
COc1ccccc1C=NN=C(NN=Cc1ccccc1OC)NN=Cc1ccccc1OC
→ ? | ?
CCCCN(C(=O)CN1CCOCC1)c1c(N)n(CC(C)C)c(=O)[nH]c1=O
→ i | -5%
Cn1c(N)c(S(=O)(=O)NCc2ccc(Cl)cc2)c(=O)n(C)c1=O
→ i | 1%
CC(/C=C/c1ccc(OCc2ccccc2)cc1)=N\O
→ -8% | -7%
O=C(NCCCn1ccnc1)C1CC(c2ccccc2Cl)=NO1 (configuration not stated)
→ i | -9%
COc1ccc(C(=O)NNC(=O)COc2ccc(Cl)cc2)c(OC)c1
→ i | -12%
CCSC(=O)NC12CC3CC(CC(C3)C1)C2
→ i | -14%
O=c1c(Cc2ccccc2)c(O)nc2n1CCS2
→ i | 3%
COc1cc(C(F)(F)F)c(C(=O)NCc2cccc(Cl)c2)cn1
→ i | -8%
Cc1ccc(S(=O)(=O)N2CCC(C(=O)NCCN3CCOCC3)CC2)cc1
→ -14% | -1%
CCC(C)(C)n1nnnc1C(C(C)C)N1CCC(C(N)=O)CC1 (configuration not stated)
→ . | -2%
COc1ccc(-c2nc(N)n(C(=O)c3ccccc3Cl)n2)cc1
→ -18% | -9%
O=C(Cn1ccccc1=O)c1cccs1
→ -16% | -4%
CC(=O)c1c[nH]c2ccc(C)cc2c1=O
→ -13% | -5%
O=C(NCC(c1ccco1)N1CCc2ccccc2C1)c1ccc(Cl)cc1 (configuration not stated)
→ -3% | -18%
CCc1nnc(NC(=O)CSc2nnc(Cc3cc(=O)[nH]c(=O)[nH]3)n2-c2ccc(OC)cc2)s1
→ i | -16%
COc1ccc(Oc2cc(C)c3ccccc3n2)cc1
→ . | -9%
COc1ccccc1N(C)S(=O)(=O)c1ccc(C(=O)OCC(=O)c2c[nH]c3ccccc23)cc1
→ -15% | -17%
Cc1cnc(CN2CCc3c([nH]c4ccccc34)C2C2CCCCC2)[nH]1 (configuration not stated)
→ -15% | -4%
O=C1c2ccccc2C(=O)N1CCCc1nc2ccccc2c(=O)n1Cc1ccco1
→ . | -12%
Nc1ccc(S(=O)(=O)Nc2cc(Cl)c(N)c(Cl)c2)cc1
→ ? | 2%
COc1ccc(C2c3[nH]c4ccccc4c3CCN2C(=O)c2cc3ncccn3n2)c(F)c1 (configuration not stated)
→ ? | -24%
C[C@@]12CCC3[C@@](CCC4[C@@]3(C)CCC[C@@]4(C)C(=O)NC3CCCCC3)(CC1=O)C2 (some centres not stated)
→ i | -12%
CCCCOC(=O)c1ccc(-c2ccc(/C=N/NC(=S)NCC)o2)cc1
→ i | -12%
CC(=O)c1cccc(N=Cc2c(O)ccc3ccccc23)c1
→ ? | -16%
CSc1ncnc2c1ncn2CCCNCc1ccc2c(c1)OCO2
→ i | -14%
CCC(Oc1ccccc1)C(=O)Nc1ccccc1C(=O)N1CCN(C)CC1 (configuration not stated)
→ i | -2%
CCc1ccc(NS(=O)(=O)c2c(C)nc3sc(CC)nn3c2=O)cc1
→ ? | -12%&-20%
CN(C)CCNc1ncnc2c1cnn2-c1cccc(Cl)c1
→ -6% | -5%
CC1(C)NC(=O)N(CC(=O)OCC(=O)Nc2cc(S(=O)(=O)N3CCCCCC3)ccc2Cl)C1=O
→ -26% | -19%
COC(=O)c1ccc(CN2C(=O)c3ccccc3C2=O)cc1
→ i | -14%
CCn1c(SCC(=O)NCc2ccccc2)nnc1-c1ccccc1O
→ -14% | -8%
CCN(CC)CCn1cnc2c1c(=O)n(CCOC(=O)c1cc(OC)c(OC)c(OC)c1)c(=O)n2C
→ i | -3%
CCN(CC)c1ccc(N=C2C(=O)Nc3ccccc32)cc1
→ -29% | -26%

Next section.
Value order: Vaccinia mCherry | Vaccinia Venus
O=C(CCNC(=O)Cn1ccc2ccccc2c1=O)NCCN1CCN(c2cccc(Cl)c2)CC1
→ ? | ?
NC(=O)NC1NC(=O)NC1=O (configuration not stated)
→ -5%&-11% | -11%&-2%
Cc1cc(C)nc(N2CCC(C(=O)NNC(=O)c3ccccc3)CC2)n1
→ -1% | -5%
CCOc1cc2c(C#N)c(N3CCCCC3)nc(N)c2c(N)n1
→ ? | -22%
CCOC(=O)C1CCN(C(=O)CCNC(=O)c2ccccc2OC)CC1
→ -18% | -10%
COc1cccc(CNC(=O)CSc2nnc(C)c3c(C)n(-c4ccccc4)nc23)c1OC
→ i | -7%
COc1ccc(OC)c(CN2CCN(C(=O)CNC(=O)c3ccccc3F)CC2)c1
→ i | -5%
CCN(CC(=O)NCc1ccc(F)cc1)C(=O)COc1ccc(C)c(C)c1
→ i | -6%
CC(C)Cc1cc(C(=O)Nc2cc(C(F)(F)F)ccc2Cl)no1
→ -8% | -10%
COc1ccc(C2Nc3ccccc3C(=O)N2c2ccccc2F)cc1COc1ccc(NC(C)=O)cc1 (configuration not stated)
→ -25% | -19%
CCCNc1nc(N2CCCC2)nc(N2CCCC2)n1
→ ? | -16%
O=C(Cn1nc(-c2ccccc2)c2ccccc2c1=O)NCCN1CCOCC1
→ -6% | -11%
COc1ccccc1CNC(=O)COC(=O)Cc1c[nH]c2ccccc12
→ -13% | -14%
Cc1nnc(NC(=O)c2cccn(Cc3ccccc3)c2=O)s1
→ -13% | 4%
CCn1c(SCC(=O)Nc2ccc(OC)cc2OC)nc2nc3c(cc2c1=O)COC(C)(C)C3
→ -11% | 4%
CCC12CCCN3CCC4(C(=C(C(=O)OC)C1)Nc1ccccc14)C32 (configuration not stated)
→ -23% | -13%
Cn1cnc2cc(NC(=O)c3ccc(Cl)cc3)ccc21
→ -9% | -5%
COC(=O)C(C)Sc1snnc1-c1ccccc1 (configuration not stated)
→ . | -11%
CC1O[C@@H](O[C@@H]2C(O)C[C@H](O[C@@H]3C(O)C[C@@H](OC4CC[C@@]5(C)C6CC[C@]7(C)C(C8=CC(=O)OC8)CC[C@@]7(O)C6CC[C@@H]5C4)OC3C)OC2C)CC(O)[C@H]1O (some centres not stated)
→ ? | 0.28µM*
COc1ccc(C(=O)COC(=O)c2ccccc2NS(=O)(=O)c2ccc(O)c([N+](=O)[O-])c2)cc1
→ -22% | -11%
Cn1nc(C(=O)NCc2ccccc2Cl)c2c1-c1ccccc1SC2
→ -3% | 8%
